# KCNQ2 pot: enhances the rat KCNQ2 potassium channel | CHO-K1 KCNQ2, FluxOR thallium flux fluorescence; hits give high values | B-score at 10 µM | 310,000 tested, 0.54% active | AID 2239;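 active = fluorescence ratio B-score at least 3 SD of library B-scores, with initial fluorescence B-score within 3 SD, cut at about 5.3 in these data; same plate scores as AID 2156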;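 also: B-score of peak minus minimum over baseline fluorescence ratio after K+ and Tl+ stimulus; positive B-score means potentiation of KCNQ2 with more thallium influx and brighter signal; only the inactives scoring about 0 or higher are listed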
# Target sequence (O88943 whole entry, looked up): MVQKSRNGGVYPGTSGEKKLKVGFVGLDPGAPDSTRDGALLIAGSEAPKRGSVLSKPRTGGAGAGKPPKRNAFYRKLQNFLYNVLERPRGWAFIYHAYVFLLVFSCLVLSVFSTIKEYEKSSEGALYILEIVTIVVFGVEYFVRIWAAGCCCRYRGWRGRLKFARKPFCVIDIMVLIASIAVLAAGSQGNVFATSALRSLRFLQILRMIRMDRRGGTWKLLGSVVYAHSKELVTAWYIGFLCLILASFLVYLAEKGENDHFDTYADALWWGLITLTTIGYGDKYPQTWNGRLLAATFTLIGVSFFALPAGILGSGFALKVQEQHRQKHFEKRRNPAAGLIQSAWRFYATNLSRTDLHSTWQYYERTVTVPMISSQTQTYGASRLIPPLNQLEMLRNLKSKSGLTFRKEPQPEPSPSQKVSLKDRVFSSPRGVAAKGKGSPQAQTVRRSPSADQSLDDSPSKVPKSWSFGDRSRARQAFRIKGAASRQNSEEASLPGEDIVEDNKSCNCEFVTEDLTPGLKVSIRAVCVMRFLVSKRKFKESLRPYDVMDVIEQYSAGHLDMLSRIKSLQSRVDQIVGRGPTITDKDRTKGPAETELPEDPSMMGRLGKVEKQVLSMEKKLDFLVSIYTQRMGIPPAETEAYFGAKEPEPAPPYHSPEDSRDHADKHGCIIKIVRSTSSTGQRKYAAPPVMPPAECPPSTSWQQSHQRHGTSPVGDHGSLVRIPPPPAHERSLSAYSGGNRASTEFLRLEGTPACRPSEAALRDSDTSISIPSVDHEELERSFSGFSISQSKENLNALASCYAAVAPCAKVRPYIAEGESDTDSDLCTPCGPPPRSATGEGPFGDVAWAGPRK
# KCNQ2 pot baseline: also measured in KCNQ2 pot; calls as there; B-score; compound at 10 µM; measured here: initial fluorescence intensity artifact check;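 brightness before thallium and not channel activity; 0 = typical well and far values either way flag optical interference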
# The depositor's hits bear a star. A portion of the library; count on the stated rates, not on these rows.
# Every second line gives: KCNQ2 pot baseline	KCNQ2 pot
1: Oc1ccc(NCc2ccc(OCc3ccccc3)cc2)cc1
    -0.46	0.56
2: Cc1c(OC(C)C(=O)NCc2ccncc2)ccc2c3c(c(=O)oc12)CCCC3 (stereo not given)
    -1.51	1.18
3: CCN(CCNC(=O)C1=C(C)C(=O)OC12CCC(C)CC2)c1ccccc1 (stereo not given)
    0.64	0.01
4: COc1ccc([N+](=O)[O-])cc1NC(=O)C(C)OC(=O)c1ccccn1 (stereo not given)
    -1.37	0.59
5: Fc1ccc(COc2ccccc2CNCc2ccncc2)cc1
    -0.1	3.05
6: O=C(COC(=O)C1=COCCO1)NCc1ccc(F)cc1
    0.82	0.38
7: CCCCc1nc2cc(C(=O)N3CCCC(COC)C3)ccc2o1 (stereo not given)
    0.62	1.09
8: O=C(O)c1ccc(NCCC2=CCCCC2)c([N+](=O)[O-])c1
    -0.88	0.83
9: O=C1CCc2cc(S(=O)(=O)Nc3ccccc3)cc3c2N1CCC3
    -0.02	1.79
10: OCc1cn(-c2ccccc2)nc1-c1cccnc1
    -1.12	0.54
11: CC1=NN(c2ccc(C)cc2)C(=O)/C1=C/c1ccc(-c2cc([N+](=O)[O-])ccc2O)o1
    -0.2	3.6
12: COc1ccccc1NC(=O)C1CCCN1S(=O)(=O)c1cccc2nsnc12 (stereo not given)
    -0.74	0.4
13: CCOc1cc(N2CCOCC2)c(OCC)cc1NC(=O)c1nc2nc(C)cc(C)n2n1
    -1	0.27
14: COc1cc([N+](=O)[O-])ccc1N
    -0.45	0.47
15: Cc1cccc(-n2ccc(=O)c(C(=O)Nc3ccc(S(=O)(=O)Nc4onc(C)c4C)cc3)n2)c1
    0.73	1.92
16: O=C(NNC(=O)c1cccs1)c1ccc2ccccc2c1
    0.07	0.52
17: Cc1ccc(C(C)C)c(OCCNC(=O)c2ccccc2O)c1
    -1.45	1.02
18: CCNC(=S)Nc1c(C)n(C)n(-c2ccccc2)c1=O
    0.46	0.62
19: CCOc1ccc(-c2c(C(=O)N/N=C/c3ccc(C)cc3)nnn2-c2nonc2N)cc1
    -0.7	1.55
20: CC(C)CNC(=O)NC(=O)COC(=O)c1cc([N+](=O)[O-])ccc1NCc1ccccc1Cl
    -1.25	1.89
21: Cc1cccc(-n2ncc3c2CCCC3NC(=O)CN2CCOC2=O)c1C (stereo not given)
    -0.37	1.59
22: COc1ccc(C(=O)N2CCCC2)cc1S(=O)(=O)N1CCOCC1
    -1.08	0.99
23: CCn1c(SCC(=O)N/N=C/c2cc(OC)c(O)c(OC)c2)nc2ccccc21
    -1.15	1.36
24: O=C(NCCc1cccc(F)c1)C1CCC(=O)N(C2CCCCCC2)C1 (stereo not given)
    0.5	2.18
25: COc1cc(/C=N/NC(=O)c2cccc(S(=O)(=O)N3CCCC3)c2)ccc1O
    -0.38	3.36
26: O=C(O)C1CC=CCC1C(=O)N1CC=C(c2ccccc2)CC1 (stereo not given)
    -1.43	0.78
27: Cc1cc(C)nc(SCC(=O)OCN2C(=O)c3ccccc3C2=O)n1
    -0.34	0.42
28: O=C(Cc1cc(=O)[nH]c(=O)[nH]1)NCC1CCCO1 (stereo not given)
    -0.59	1.08
29: CC(C)n1c(O)c(N=Nc2ccc(Cl)c(C(=O)O)c2)c2ccccc21
    0.4*	7.51*
30: COCCn1c(Sc2ccc(C)cc2)nc2c1c(=O)[nH]c(=O)n2C
    -0.11	1.61
31: COc1cc(C(=O)OCC(=O)N(C)Cc2ccccc2)cc(OC)c1OC
    0.4	0.09
32: Cc1ccccc1NC(=S)NC(C)C(c1cccs1)N1CCOCC1 (stereo not given)
    0.1	2.48
33: Cc1ccc(C(=O)COC(=O)C2CCC2)cc1
    0.51	1.8
34: CCOc1cccc(/C(O)=C2/C(=O)C(=O)N(Cc3ccco3)C2c2ccncc2)c1 (stereo not given)
    -0.92	0.57
35: CCc1ccc(OCCCC(=O)Nc2nnc(C3CCCO3)s2)cc1 (stereo not given)
    -0.5	1.42
36: O=C(Nc1ccc2ccccc2n1)c1ccccc1Cl
    -0.04	1.4
37: O=C(NCc1ccc(Cl)cc1)C(=O)c1c[nH]c2ccccc12
    -0.18	0.23
38: COC/C=C/C1=CC2=CC(=O)C(C)(OC(=O)c3cnc4ccccc4n3)C(=O)C2=CN1c1ccc(CO)cc1 (stereo not given)
    -0.01	1.89
39: CN(CC(=O)Nc1ccncc1)S(=O)(=O)c1ccc(Cl)cc1
    -0.5	0.63
40: CCOc1cc(C(=O)OCC(=O)c2c[nH]c3ccccc23)ccc1OCC(=O)N1CCOCC1
    1.4	0.34
41: CCOC(=O)C1(Cc2cccc(OC)c2)CCN(Cc2cccc(O)c2)CC1
    -1.22	1.8
42: O=C(COc1ccc(S(=O)(=O)NCc2ccccc2)cc1Cl)NCC1CCCO1 (stereo not given)
    -0.64	0.67
43: COc1c(Cl)cc(Cl)cc1CNCCO
    -0.47	0.02
44: CCn1cc(CN2CCC(C(=O)Nc3cccc(-c4cccc(OC)c4)c3)CC2)cn1
    -0.88	0.65
45: CC(=O)c1ccc(Sc2ccccc2)c([N+](=O)[O-])c1
    0.21	0.39
46: CC(C)(C)c1ccc(OCCC(=O)Nc2ccc(N3CCOCC3)cc2N2CCOCC2)cc1
    -0.25*	7.97*
47: COc1cccc(/C=C/C(=O)OCC(=O)Nc2cccc(S(=O)(=O)N3CCOCC3)c2)c1OC
    0.04	1.75
48: CN1C(=O)c2cccc3c(S(=O)(=O)Nc4ccccn4)ccc1c23
    0.52	1.22
49: COc1ccccc1C(O)c1nccn1C (stereo not given)
    -0.88	0.21
50: COc1ccc(OCC(O)CN2C(=O)c3ccccc3S2(=O)=O)cc1 (stereo not given)
    -0.59	1.76
51: COc1ccccc1-c1c(C)oc2c(CN3CCCC(C)C3)c(O)ccc2c1=O (stereo not given)
    -2.35	0.33
52: COc1ccc(C(=O)Nc2ccnn2C2CCN(CCC(C)c3ccc(C)o3)CC2)cc1 (stereo not given)
    -1.34	2.4
53: O=Cc1ccc(-n2cccn2)cc1
    0.37	0.46
54: CCS(=O)(=O)N1CCCC(C(=O)c2ccc(OC)cc2C)C1 (stereo not given)
    -1.64	0.88
55: COc1ccc(-c2nn3c(COc4ccccc4)nnc3s2)cc1OC
    0.75	0.46
56: Cc1ccc(C(=O)/C=C\Nc2ccc(C)c(C)c2)cc1
    -0.22	0.03
57: COc1ccccc1C(C(=O)NC1CCCC1)N(C(=O)c1csnn1)C1CC1 (stereo not given)
    -0.26	1.01
58: CC1(C)CC(=O)C=C(Nc2ccc(Cl)cc2)C1
    0.17	1.27
59: CC1CCC(NC(=O)c2cc(S(=O)(=O)N3CCCCC3)c[nH]2)CC1 (stereo not given)
    0.16	0.04
60: COCCN(C(=S)Nc1c(C)cccc1C)C(C)c1cccs1 (stereo not given)
    0.36	0.4

# Arranged by value in KCNQ2 pot baseline (low to high): some entries from above
# Every second line gives: KCNQ2 pot baseline	KCNQ2 pot
49: COc1ccccc1C(O)c1nccn1C (stereo not given)
    -0.88	0.21
50: COc1ccc(OCC(O)CN2C(=O)c3ccccc3S2(=O)=O)cc1 (stereo not given)
    -0.59	1.76
43: COc1c(Cl)cc(Cl)cc1CNCCO
    -0.47	0.02
57: COc1ccccc1C(C(=O)NC1CCCC1)N(C(=O)c1csnn1)C1CC1 (stereo not given)
    -0.26	1.01
37: O=C(NCc1ccc(Cl)cc1)C(=O)c1c[nH]c2ccccc12
    -0.18	0.23
32: Cc1ccccc1NC(=S)NC(C)C(c1cccs1)N1CCOCC1 (stereo not given)
    0.1	2.48
58: CC1(C)CC(=O)C=C(Nc2ccc(Cl)cc2)C1
    0.17	1.27

# Further compounds follow:
# Every second line gives: KCNQ2 pot baseline	KCNQ2 pot
61: CC1CCC2(CC1)NC(=O)N(CC(=O)NC(=O)NC1CCCC1)C2=O (stereo not given)
    -1.15	0.58
62: COC(C(=O)Nc1ccc(S(=O)(=O)Nc2c(C)cccc2C)cc1)c1ccccc1 (stereo not given)
    0.04	1.49
63: CCCS(=O)(=O)c1c(S(=O)(=O)CCC)c2ccc(C(C)=O)cn2c1C(=O)OC
    0.36	1.38
64: O=C(CCc1nc(-c2ccccc2F)no1)Nc1cccnc1
    0.23	0.63
65: NC(=NC(=O)c1ccc(OCC(F)(F)F)nc1)c1ccccc1
    1.17	0.26
66: Cc1csc(-c2coc3cc(O)cc(C)c3c2=O)n1
    -0.52	1.48
67: CN(C(=O)CSc1nncn1-c1ccccc1)c1ccccc1
    -0.08	0.82
68: COc1ccc2nc(NC(=O)CSc3nc(SC)ns3)sc2c1
    0.01	1.4
69: CCCC(=O)Nc1cc(OC)c(NC(=O)NC2CCCCC2)cc1OC
    -1.17	0.57
70: CC(C)(C)NC(=O)CN(C(=O)CNS(=O)(=O)c1ccc(Cl)cc1)c1ccc2c(c1)OCCO2
    0.61	0.07
71: O=C(NC1CCCCCCC1)c1ccccc1O
    1.08	1.55
72: CCN1C(=O)NC2=C(C(=O)c3ccccc32)C1c1ccccc1F (stereo not given)
    0	0.94
73: Cc1ccccc1OCCC(=O)OCC(=O)N1CCN(S(=O)(=O)c2ccc(Cl)cc2)CC1
    -1.49	0.59
74: N/C(=N\OC(=O)COc1ccc(Br)cc1Cl)c1ccccn1
    0.83	0.86
75: CN(c1cccc(NC(=O)c2ccc(N(C)S(=O)(=O)c3ccccc3)cc2)c1)S(C)(=O)=O
    1.83	1.24
76: CCOC(=O)N1CCN(S(=O)(=O)c2ccc3[nH]cc(C(=O)O)c(=O)c3c2)CC1
    0.19	1.24
77: CCOC(=O)N1CCN(C(=O)CSc2ccc(C(F)(F)F)cc2[N+](=O)[O-])CC1
    -0.03	1.53
78: COc1cc(C(=O)N/N=C(\Cc2ncc[nH]2)c2ccccc2)cc(OC)c1OC
    0.51	0.01
79: CCCOc1ccccc1/C=N/NC(=O)C1CC1
    0.43	0.78
80: COCCCNC(=O)CN(c1ccc(Cl)c(Cl)c1)S(C)(=O)=O
    0.56	0.48
81: CN1CCN(C(=O)N2c3ccccc3CCc3ccccc32)CC1
    0.09	0.44
82: O=C(CCCn1c(=O)[nH]c2cc(Cl)ccc2c1=O)NC1CCCCCC1
    -1	0.46
83: O=C(COC(=O)Cc1ccc(S(=O)(=O)N2CCOCC2)s1)NCc1ccc(Cl)cc1
    1	0.01
84: COc1ccc(OC)c(S(=O)(=O)NCc2csc(-c3ccccc3)n2)c1
    -0.43	0.38
85: O=S(=O)(c1ccccc1)N1CCN(c2nnc(-c3ccccc3)c3ccccc23)CC1
    -0.39	0.12
86: Cc1cc(C(=O)CN2CCCC(C)C2)c(C)n1-c1ccc(F)cc1 (stereo not given)
    -0.55	0.97
87: O=C(CNC(=O)c1ccc(Br)o1)NCC1CCCO1 (stereo not given)
    -0.09	0.62
88: Clc1ccc(OCc2nn3c(-c4ccccc4)nnc3s2)c(Cl)c1
    -1.48	0.02
89: N#CCCCSc1nnc(-c2ccccn2)o1
    0.47	0.04
90: COc1cc2c(cc1OC)C(c1cccs1)N(C(=O)c1cccnc1)CC2 (stereo not given)
    -0.53	0.15
91: O=C(O)CC1S/C(=N\N=C2CCCCCC2)N(c2ccccc2)C1=O (stereo not given)
    -0.01	1.11
92: Cc1ccc(S(=O)(=O)N=S(CC2CC2(Cl)Cl)CC2CC2(Cl)Cl)cc1 (stereo not given)
    -0.61	0.15
93: Cc1cccc(Cc2cnc(N3C(=N)SC(C)C3=O)s2)c1 (stereo not given)
    -1.4*	6*
94: COc1cc(Cl)c(C)cc1NC(=O)CSc1sc2c(O)cc(=O)[nH]c2c1C#N
    1.34	0.19
95: O=C(NC1CCCCC1)C1CCCN1S(=O)(=O)c1cccc2nsnc12 (stereo not given)
    -0.33	2.11
96: CCCCOc1ccc(-c2ncc(Cl)cn2)cc1
    -1.26	0.13
97: O=C(CN1C(=O)NC2(CCc3ccccc32)C1=O)c1ccccc1 (stereo not given)
    1.98	0.45
98: O=C(Cn1nnc2ccccc2c1=O)Nc1cccc(S(=O)(=O)N2CCOCC2)c1
    0.94	1.02
99: O=C(COC(=O)c1cccnc1)c1ccc(Cl)cc1
    -0.56	0.37
100: Cc1cc(C)cc(NC(=O)Nc2ccc(S(=O)(=O)Nc3cc(C)on3)cc2)c1
    0.65	0.6
101: COc1ccc(CN(C(=O)c2ccc(CN3CCOCC3)o2)C(C(=O)NCC2CCCO2)c2ccc(F)cc2)cc1 (stereo not given)
    -1.45	2.28
102: CCCCN1C(=O)C(=O)N(c2ccccc2)C1=S
    -0.77	0.46
103: COc1cccc(-n2c(=O)[nH]cc(C(=O)Nc3ccc4c(c3)OCCO4)c2=O)c1
    0.28	2.05
104: O=C(Cn1cnc2c(nnn2Cc2ccc(F)cc2)c1=O)NCc1ccco1
    1.72	0.04
105: COc1ccc(N(C(=O)c2cccnc2)S(=O)(=O)c2ccccc2)cc1
    -2.52	0.02
106: CC(=O)c1cc(C(C)=O)c(C)nc1C
    -0.13	0.87
107: O=C(O)CC1S/C(=N/N=C/c2ccc(-c3ccc(Cl)c([N+](=O)[O-])c3)o2)NC1=O (stereo not given)
    0.05	0.35
108: COC(=O)Cc1ccc(NC(=S)NCc2ccco2)cc1
    0.15	0.46
109: CC(C)N(C(=S)NCc1ccccc1)c1ccccc1
    -0.42	1.94
110: N#CC1=C(SCC(=O)NC2CCCCC2)NC(=O)CC1c1ccco1 (stereo not given)
    0.05	0.23
111: COc1cccc(C(=O)C2CCCN(C(=O)c3ccc(C#CC(C)(C)O)cc3)C2)c1 (stereo not given)
    0.01	2.34
112: Cc1ccc(/C=N/Nc2ccc(Cl)nn2)cc1
    -1.38	1.41
113: Cc1cc(C)cc(NC(=O)C(=O)NCCc2c[nH]c3ccccc23)c1
    -2.96	0.15
114: COc1ccc(Br)cc1-c1nc(CCl)cs1
    -0.73	0.01

# Single entries from the results shown.
# KCNQ2 pot baseline with O=C(Cn1nnc2ccccc2c1=O)Nc1cccc(S(=O)(=O)N2CCOCC2)c1 stands at 0.94
# KCNQ2 pot baseline with O=C(O)CC1S/C(=N\N=C2CCCCCC2)N(c2ccccc2)C1=O (stereo not given) stands at -0.01
# KCNQ2 pot with COc1ccc(Br)cc1-c1nc(CCl)cs1 stands at 0.01

# Source: PubChem BioAssay (Johns Hopkins Ion Channel Center)
